Compound activity deposited in PubChem BioAssay by Broad Institute.
Vaccinia stage – blocks a specific stage of Vaccinia orthopoxvirus infection. activity change (mCherry), % (no concentration beside the values). Vaccinia-infected cells, mCherry/Venus stage reporter fluorescence; hits give low values; some inactives read as strong as hits. 89,000 compounds, 0.01% hits;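 active means mCherry past -33% and 40 or more points under the early reporter, replicates agreeing; inconclusive means past -33% without that gap or agreement; tested in A549 cells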;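 further: scaled between vehicle wells and reference inhibitor wells; 23 nL library stock went into each well; one replicate is shown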
Vaccinia stage Venus – also measured in Vaccinia stage; calls as there; activity change (Venus), %; measured here: Venus reporter, other viral stage;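 negative = less Venus signal; first of two replicates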
* hit, by the source's call; ? = inconclusive; nt = no result given; & = joins results of further samples. Not all compounds are listed; rates above refer to the full screens.

SMILES	Vaccinia stage	Vaccinia stage Venus
CC=Cc1ccc2n(c1=O)C[C@@H]1[C@@H](CO)[C@H](C(=O)NCC3CC3)N(C(=O)CC3CC3)[C@H]21 (mixture of isomers)	1	8
C[C@H]1CN([C@@H](C)CO)C(=O)Cc2cc(NC(=O)Nc3ccccc3)ccc2O[C@H]1CN(C)C(=O)Nc1ccccc1	9	13
C[C@@H]1CN([C@@H](C)CO)C(=O)c2cc(NC(=O)Nc3ccccc3)ccc2O[C@@H](C)CCCCO[C@H]1CN(C)C(=O)CCC(F)(F)F	-25	-14
C[C@H]1CN([C@@H](C)CO)C(=O)c2cc(-c3ccccc3)cnc2O[C@@H]1CN(C)Cc1ccccc1	-23	-14
Cc1noc(C)c1S(=O)(=O)Nc1ccc2c(c1)CC(=O)N([C@@H](C)CO)C[C@@H](C)[C@@H](CN(C)S(=O)(=O)c1cccs1)O2	-5	-1
C[C@@H]1CN([C@H](C)CO)C(=O)Cc2cc(NS(C)(=O)=O)ccc2O[C@@H]1CN(C)C(=O)NC1CCCCC1	6	7
COc1ccc(-c2ccc(C3[C@H]4CNC[C@@H]3N4S(=O)(=O)c3cccc(C)c3)cc2)cc1 (stereo partly specified)	9&24	10&24
COc1cccc(C#Cc2ccc([C@H]3[C@@H](C#N)N(C(=O)C4CCCC4)[C@@H]3CO)cc2)c1	-8	-8
Cc1noc(C)c1S(=O)(=O)N(C)C[C@@H]1Oc2ccc(NC(=O)Nc3ccc4c(c3)OCO4)cc2CC(=O)N([C@H](C)CO)C[C@@H]1C	-5	-2
CC(C)NC(=O)Nc1ccc2c(c1)C(=O)N([C@H](C)CO)C[C@@H](C)[C@@H](CN(C)Cc1ccc3c(c1)OCO3)O2	23	11
COC(=O)[C@@]1(CCS(=O)(=O)c2ccccc2)N=C(c2ccc(OCCCO)cc2)O[C@H]1c1ccccc1	?	nt
O=C(N[C@@H]1C=C[C@H](CC(=O)N2CCN(c3ccccc3)CC2)O[C@H]1CO)c1ccncc1	-10	-8
C[C@H](CO)N1C[C@H](C)[C@H](CN(C)Cc2ccc(C(=O)O)cc2)Oc2c(NS(=O)(=O)c3ccccc3)cccc2C1=O	25	37
C[C@H](CO)N1C[C@H](C)[C@@H](CN(C)Cc2ccc3c(c2)OCO3)Oc2ccc(N(C)C)cc2CC1=O	-2	2
Cc1noc(C)c1NC(=O)Nc1cccc2c1O[C@H](CN(C)Cc1ccccc1)[C@H](C)CN([C@@H](C)CO)C2=O	-8	2
C[C@@H]1CN([C@@H](C)CO)C(=O)c2cc(-c3cccc(F)c3)cnc2O[C@H]1CN(C)Cc1ccccc1	-17	-20
O=C(C[C@H]1C[C@@H]2c3cc(NC(=O)c4cccnc4)ccc3O[C@@H]2[C@@H](CO)O1)NC1CCCC1	19	19
COc1cccc(-c2ccc([C@@H]3[C@H](CO)N4CCCCN(C(=O)Cc5ccncc5)C[C@@H]34)cc2)c1	3	-5
C[C@H](CO)N1C[C@H](C)[C@@H](CN(C)C(=O)C2CC2)OCc2cn(nn2)CCCC1=O	10	10
CCCNC(=O)N(C)C[C@@H]1Oc2cc(C#C[C@H](C)O)ccc2S(=O)(=O)N([C@@H](C)CO)C[C@H]1C	24	15
CN1C(=O)c2cc(NC(=O)c3ccc(F)cc3)ccc2OC[C@@H]2O[C@@H](CC(=O)NC3CCC3)CC[C@@H]21	5	8
CCNC(=O)C[C@@H]1CC[C@@H]2[C@@H](COc3ccc(NC(=O)Nc4cccc(C)c4)cc3C(=O)N2C)O1	-5	7
O=S(=O)(Cc1ccccc1)N1CCCCN2[C@H](CO)[C@@H](c3ccc(-c4cccnc4)cc3)[C@@H]2C1	3	3
Cc1noc(C)c1NC(=O)Nc1cccc2c1O[C@@H](CN(C)S(=O)(=O)c1ccc(Cl)cc1)[C@@H](C)CN([C@H](C)CO)C2=O	7	0
CN(C)C(=O)C[C@H]1CC[C@H](NC(=O)C2CC2)[C@@H](CO)O1	24	12

Entries of single compounds, looked up by structure.
COc1cccc(-c2ccc([C@@H]3[C@H](CO)N4CCCCN(C(=O)Cc5ccncc5)C[C@@H]34)cc2)c1 is listed as Vaccinia stage: 3; Vaccinia stage Venus: -5
C[C@H](CO)N1C[C@H](C)[C@@H](CN(C)Cc2ccc3c(c2)OCO3)Oc2ccc(N(C)C)cc2CC1=O is listed as Vaccinia stage: -2; Vaccinia stage Venus: 2

Next part.
SMILES	Vaccinia stage	Vaccinia stage Venus
C[C@H](CO)N1C[C@H](C)[C@@H](CN(C)C(=O)Nc2ccccc2)Oc2cc(C#C[C@@H](C)O)ccc2S1(=O)=O	14	15
COCC(=O)N(C)C[C@H]1Oc2cc(C#CC3CC3)ccc2S(=O)(=O)N([C@H](C)CO)C[C@@H]1C	-1	2
Cc1cccc(S(=O)(=O)N2CC[C@@H]3[C@@H](CO)Nc4ccc(C#Cc5ccc(F)cc5)cc4[C@@H]32)c1	-26	-31
CN(C)C(=O)[C@@H]1[C@@H](CO)[C@@H]2Cn3c(ccc(-c4ccccc4)c3=O)[C@H]1N2C(=O)C1CCC1	-6	5
COc1cccc(CNC(=O)[C@@H]2[C@@H](CO)[C@@H]3Cn4c(ccc(-c5cccnc5)c4=O)[C@H]2N3C(C)=O)c1	3	-1
CCCC#Cc1ccc([C@H]2[C@H]3CN(C(=O)CN4CCOCC4)CC(=O)N3[C@H]2CO)cc1	-7	-8
O=C(Nc1ccc2c(c1)[C@H]1C[C@@H](CC(=O)N3CCCCC3)O[C@@H](CO)[C@H]1O2)NC1CCCCC1	4	0
C[C@H](CO)N1C[C@H](C)[C@H](CN(C)S(=O)(=O)c2ccccc2)Oc2ncc(/C=C/c3ccccc3)cc2C1=O	-24&-11	-17&-16
C[C@@H]1CN([C@@H](C)CO)C(=O)Cc2cc(NC(=O)CCN3CCOCC3)ccc2O[C@H]1CN(C)S(=O)(=O)c1ccc(Cl)cc1	1	-4
O=C(CC1CC1)N[C@H]1CC[C@H](CCNS(=O)(=O)c2ccc(F)cc2)O[C@@H]1CO	7	10
CC(=O)N1CC(=O)N2[C@H](CO)[C@H](c3ccc(-c4ccc(C#N)cc4)cc3)[C@H]2C1	15	9
CO[C@H]1CN(C)C(=O)c2ccc(NC(=O)c3cccc(F)c3)cc2OC[C@H](C)NC[C@H]1C	-10	-9
C[C@@H]1CN([C@@H](C)CO)C(=O)Cc2cc(NC(=O)NC3CCCCC3)ccc2O[C@@H]1CN(C)S(=O)(=O)c1cn(C)cn1	5	6
C[C@@H]1CN([C@H](C)CO)C(=O)Cc2cc(NC(=O)Nc3ccc4c(c3)OCO4)ccc2O[C@H]1CN(C)Cc1ccc(-c2ccccc2)cc1	-5	-5
C[C@@H]1CN([C@@H](C)CO)C(=O)c2cc(NC(=O)CCN3CCOCC3)ccc2O[C@@H]1CN(C)C(=O)NC1CCCCC1	15	5
O=C(C[C@@H]1CC[C@@H](NC(=O)Nc2cc(F)ccc2F)[C@H](CO)O1)NCc1ccncn1	14	22
COC(=O)C[C@@H]1CC[C@@H]2[C@@H](COc3ccc(NC(=O)Nc4c(C)noc4C)cc3C(=O)N2C)O1	17	14
CC(C)C#Cc1ccc2c(c1)O[C@H](CN(C)C(=O)Nc1ccccc1)[C@H](C)CN([C@H](C)CO)S2(=O)=O	?	nt
O=C(C[C@H]1CC[C@H](NC(=O)Nc2ccc3c(c2)OCO3)[C@H](CO)O1)NCc1ccc(Cl)cc1	0	5
CCC(=O)N(C)C[C@H]1Oc2cc(-c3ccc(OC)cc3)ccc2S(=O)(=O)N([C@H](C)CO)C[C@H]1C	-10	-7
COc1ccc(S(=O)(=O)N(C)C[C@@H]2OCCCC[C@H](C)Oc3ccc(NC(=O)Nc4cccc5ccccc45)cc3C(=O)N([C@H](C)CO)C[C@H]2C)cc1	8	-2
CO[C@@H]1CN(C)C(=O)c2cc(NC(=O)c3ccc(F)cc3)ccc2OC[C@H](C)N(C(=O)c2ccc(F)cc2)C[C@H]1C	-3	-3
Cc1cc(C(=O)Nc2cccc3c2O[C@H](CN(C)C(=O)Nc2ccccc2)[C@H](C)CN([C@H](C)CO)C3=O)n(C)n1	4	9
CN1C(=O)c2cc(NC(=O)C3CCCCC3)ccc2OC[C@H]2O[C@H](CC(=O)NCC3CCCCC3)CC[C@@H]21	-8	-4
C[C@H]1CN([C@@H](C)CO)C(=O)Cc2cc(NS(C)(=O)=O)ccc2O[C@H]1CN(C)C(=O)NC1CCCCC1	5	3

Six compounds from above, sorted by formula weight, lowest first.
SMILES	Vaccinia stage	Vaccinia stage Venus
CO[C@H]1CN(C)C(=O)c2ccc(NC(=O)c3cccc(F)c3)cc2OC[C@H](C)NC[C@H]1C	-10	-9
COCC(=O)N(C)C[C@H]1Oc2cc(C#CC3CC3)ccc2S(=O)(=O)N([C@H](C)CO)C[C@@H]1C	-1	2
O=C(Nc1ccc2c(c1)[C@H]1C[C@@H](CC(=O)N3CCCCC3)O[C@@H](CO)[C@H]1O2)NC1CCCCC1	4	0
C[C@H](CO)N1C[C@H](C)[C@@H](CN(C)C(=O)Nc2ccccc2)Oc2cc(C#C[C@@H](C)O)ccc2S1(=O)=O	14	15
Cc1cc(C(=O)Nc2cccc3c2O[C@H](CN(C)C(=O)Nc2ccccc2)[C@H](C)CN([C@H](C)CO)C3=O)n(C)n1	4	9
C[C@@H]1CN([C@@H](C)CO)C(=O)Cc2cc(NC(=O)NC3CCCCC3)ccc2O[C@@H]1CN(C)S(=O)(=O)c1cn(C)cn1	5	6

Next section
SMILES	Vaccinia stage	Vaccinia stage Venus
Cn1cnc(S(=O)(=O)N[C@H]2CC[C@@H](CC(=O)Nc3ccccc3)O[C@@H]2CO)c1	1	-2
N#C[C@@H]1[C@H](c2ccccc2-c2cccc(F)c2)[C@@H](CO)N1C(=O)CN1CCOCC1	13	5
C[C@H](CO)N1C[C@H](C)[C@H](CN(C)C(=O)Nc2ccccc2)Oc2c(NC(=O)C3CC3)cccc2C1=O	20	20
C[C@@H]1CN([C@@H](C)CO)C(=O)c2cccc(NS(=O)(=O)c3ccc(Cl)cc3)c2O[C@H]1CN(C)Cc1ccc(C(=O)O)cc1	14	7
COc1ccc(CN(C)C[C@@H]2Oc3ccc(NS(C)(=O)=O)cc3CC(=O)N([C@H](C)CO)C[C@H]2C)cc1	14	11
CO[C@H]1CN(C)C(=O)c2cc(NS(=O)(=O)c3ccccc3C)ccc2OC[C@H](C)NC[C@H]1C	-2	8
Cc1ccc(S(=O)(=O)NCC[C@H]2CC[C@H](NC(=O)c3ccccn3)[C@H](CO)O2)cc1	-8	-9
CCC(=O)N[C@H]1CC[C@H](CCn2cc(CN(C)C)nn2)O[C@@H]1CO	6	3
COc1cccc(CN2C[C@@H]3N[C@H](C2)C3c2ccc(-c3ccccc3OC)cc2)c1 (stereo partly specified)	?	nt
COc1ccc2c3c(n(C)c2c1)[C@H](CO)N(C)CC31CN(S(=O)(=O)c2cn(C)cn2)C1	14	3
C[C@@H]1CN([C@H](C)CO)C(=O)Cc2cc(NC(=O)Cc3cn(C)c4ccccc34)ccc2O[C@H]1CN(C)C(=O)Nc1cccc2ccccc12	3	1
C[C@@H]1CN([C@@H](C)CO)C(=O)c2cc(NC(=O)CCC(F)(F)F)ccc2O[C@@H]1CN(C)Cc1ccc(C(=O)O)cc1	6	-4
C[C@H]1CCCCO[C@H](CN(C)S(=O)(=O)c2ccc(F)cc2)[C@@H](C)CN([C@@H](C)CO)C(=O)c2cc(NS(=O)(=O)c3ccc(Cl)cc3)ccc2O1	?	nt
CN1C(=O)c2cc(NC(=O)c3ccc(F)cc3)ccc2OC[C@H]2O[C@@H](CC(=O)NC3CCC3)CC[C@H]21	-4	-5
CN(C)CC(=O)N1[C@H](CO)[C@@H](c2ccc(C#CC3CCCC3)cc2)[C@@H]1C#N	6	12
CCCC(=O)Nc1ccc2c(c1)OC[C@@H](C)N(Cc1ccc(-c3ccccn3)cc1)C[C@H](C)[C@H](OC)CN(C)C2=O	-15	-19
CC(C)NC(=O)Nc1cccc2c1O[C@H](CN(C)Cc1ccc(-c3ccccc3)cc1)[C@H](C)CN([C@H](C)CO)C2=O	12	14
C[C@@H]1CN([C@@H](C)CO)C(=O)c2cc(-c3ccc(C(=O)N(C)C)cc3)cnc2O[C@H]1CN(C)C	21	17
C[C@@H]1CN([C@@H](C)CO)C(=O)CCCn2nncc2CO[C@@H]1CN(C)S(=O)(=O)c1ccc(Oc2ccccc2)nc1	10	9
COc1cccc(CNC(=O)[C@H]2N[C@H]3c4ccc(/C=C/c5ccccc5)c(=O)n4C[C@H]3[C@@H]2CO)c1	-1	0
COc1ccc(S(=O)(=O)Nc2ccc3c(c2)C(=O)N([C@@H](C)CO)C[C@@H](C)[C@H](CN(C)C(=O)Nc2ccccc2)O3)cc1	9	10
CCC(=O)N(C)C[C@H]1Oc2cc(C#CCOC)ccc2S(=O)(=O)N([C@@H](C)CO)C[C@H]1C	-3	-8
CNC[C@H]1Oc2ccc(NC(=O)Cc3cn(C)c4ccccc34)cc2CC(=O)N([C@H](C)CO)C[C@H]1C	14	9
COc1cccc(S(=O)(=O)N2CCC3(CC2)CN(C(=O)Nc2cccc(F)c2)[C@@H](CO)c2[nH]c4cc(OC)ccc4c23)c1	-5	-5
Cc1ccc(S(=O)(=O)N(C)C[C@@H]2Oc3cc(Br)ccc3S(=O)(=O)N([C@H](C)CO)C[C@@H]2C)cc1	?	nt
C[C@H]1CN([C@@H](C)CO)C(=O)c2cccc(NS(C)(=O)=O)c2O[C@@H]1CN(C)C(=O)Nc1cccc2ccccc12	-12	-4
O=C(Nc1ccc2c(c1)[C@@H]1C[C@@H](CC(=O)N3CCOCC3)O[C@H](CO)[C@@H]1O2)NC1CCCC1	19	12
CC(C)NC(=O)N1CCCCN2[C@H](C1)[C@@H](c1ccc(C#Cc3ccccc3F)cc1)[C@@H]2CO	?	nt
O=C(C[C@H]1C[C@@H]2c3cc(NC(=O)C4CCC4)ccc3O[C@@H]2[C@H](CO)O1)NC1CCCCC1	1	3
